Source: PubChem BioAssay
NS1 inh: inhibitors of influenza NS1 protein function; actives 0.4% (n = 270,000); S. cerevisiae slowed by influenza A NS1, growth recovery by OD600; Potency, µM (highest dose often 46.1 µM), for inactives: at the top dose activity, positive = more growth; active means well fitted rising curve with a large enough effect; inconclusive means small, poorly fitted or top-dose-only effect; inactive means no such curve, though single readings can be large or run the other way; also: nearly all actives have a fitted effect of over 50% in size
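Growth recovery, yeast-based: influenza A NS1 expressed in S. cerevisiae causes slow growth, and suppressors are detected by OD600. The parent strain without NS1 is used as positive control.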
Cruzain inh Det: cruzain (T. cruzi) inhibition with detergent; purified cruzain, Z-FR-AMC fluorescence, 0.01% Triton; actives 0.43% (n = 200,000); Potency, µM, for the others: max response, negative = inhibition, most hits filed as inhibitors; P25779;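 also: plate controls were neutral wells for no effect and buffer without enzyme for full effect; nearly all actives have a fitted effect of over 40% in size; top concentration of the series not given in the record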
Target sequence (P25779 123-467 limits assumed): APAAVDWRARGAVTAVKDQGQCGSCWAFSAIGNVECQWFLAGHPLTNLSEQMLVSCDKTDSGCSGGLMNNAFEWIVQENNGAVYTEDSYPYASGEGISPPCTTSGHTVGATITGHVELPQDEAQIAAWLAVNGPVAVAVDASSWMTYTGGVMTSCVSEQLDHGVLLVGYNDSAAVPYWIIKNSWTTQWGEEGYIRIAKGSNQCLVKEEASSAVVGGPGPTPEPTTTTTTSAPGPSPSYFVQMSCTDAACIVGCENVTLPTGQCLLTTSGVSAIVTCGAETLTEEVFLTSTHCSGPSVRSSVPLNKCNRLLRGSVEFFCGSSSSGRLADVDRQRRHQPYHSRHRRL
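Read-out: AMC fluorescence (360 nm excitation, 450 nm emission), four reads over 2 min, first-to-third difference used. Conditions: cruzain 1.5 nM, Z-FR-AMC 2 uM, pH 5.5 acetate, 5 mM DTT, 0.01% Triton X-100.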
Lassa entry inh: inhibitors of Lassa virus binding or cell entry. actives 1.2% (n = 300,000). AID 540256. Potency, µM (top dose mostly 37.9 µM), inactives show at the top dose activity change, negative = inhibition, usual class: inhibitors. Lassa virus pseudotype entry inhibition, cell reporter; control for the full effect not named in the record; active means well fitted inhibition curve with a large enough effect; inconclusive means small, poorly fitted or top-dose-only effect, or effect the other way; inactive means flat fitted curve, though single readings scatter; tested in HEK293 cells; also: % is scaled to controls: 0 for no effect and ±100 for the full control effect; nearly all actives have a fitted effect of over 50% in size; luciferase read-out
2A StopGo: FMDV 2A StopGo reporter, luciferase signal. actives 1.2% (n = 410,000). Potency, µM (doses to about 57.9 µM), for the others: top-dose signal change, negative = less light. human cells with a luciferase reporter of 2A StopGo recoding; control for the full effect not named in the record; active = well fitted falling curve with a large enough effect; inconclusive = small, poorly fitted or top-dose-only effect; inactive = no such curve, though single readings can be large or run the other way; tested in HEK293T cells; also: % is scaled to controls: 0 for no effect and ±100 for the full control effect; nearly all actives have a fitted effect of over 45% in size; luciferase light after 4 h
SARS PLpro yeast: SARS-CoV PLP inhibition in yeast; S. cerevisiae expressing SARS-CoV PLpro, growth rescue; control for the full effect not named in the record; Potency, µM (highest dose often 32.9 µM), without a hit: at the highest dose activity, positive = growth rescue; actives 0.19% (n = 330,000); AID 485353; active means well fitted rising curve with a large enough effect; inconclusive means small, poorly fitted or top-dose-only effect; inactive means no such curve, though single readings can be large or run the other way; also: 0% is about no effect; nearly all actives have a fitted effect of over 55% in size; growth read by luminescence after 48 h
RE007 growth inh: less growth of the S. pombe RE007 Vpr strain | actives 0.21% (n = 360,000) | AID 651644 | Potency, µM (top dose mostly 92.2 µM), without a hit: top-dose activity change, negative = less growth | S. pombe RE007 Vpr strain, BacTiter-Glo ATP luminescence, 24 h; control for the full effect not named in the record; active = well fitted falling curve with a large enough effect; inconclusive = small, poorly fitted or top-dose-only effect; inactive = no such curve, though single readings can be large or run the other way;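 also: % is scaled to controls: 0 for no effect and ±100 for the full control effect; nearly all actives have a fitted effect of over 50% in size; the assay follows cell death caused by Vpr and the record does not say whether a fall means rescue or toxicity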
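Fission yeast strain RE007, carrying one chromosomally integrated HIV-1 vpr copy, was seeded at OD 0.01 in PMG+AL medium with 23 nL pinned compound. After 24 h at 30 °C and 99% humidity, viability was read by BacTiter-Glo luminescence.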
Cruzain inh noDet: inhibitors of Trypanosoma cruzi cruzain without detergent; purified cruzain, Z-FR-AMC fluorescence, no detergent; Potency, µM, for inactives: max response, negative = inhibition, most hits filed as inhibitors; actives 2.3% (n = 200,000); P25779;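 also: plate controls were enzyme without inhibitor for no effect and buffer without enzyme for full effect; nearly all actives have a fitted effect of over 40% in size; top concentration of the series not given in the record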
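Purified cruzain at 1.5 nM, pre-incubated 15 min with compound at room temperature in 100 mM sodium acetate pH 5.5, 5 mM DTT, 0.00005% Triton X-100. Reaction started with 2 uM Z-FR-AMC; AMC fluorescence increase over 60 s gives rate.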
MARV entry inh: inhibitors of Marburg virus binding or cell entry; Marburg virus pseudotyped entry inhibition, cell reporter; control for the full effect not named in the record; about a third of the inactives were read at about 46 µM; Potency, µM (highest dose often 37.8 µM), without a hit: at the highest dose activity change, negative = inhibition, usual class: inhibitors; actives 1.8% (n = 300,000); AID 540276; active = well fitted inhibition curve with a large enough effect; inconclusive = small, poorly fitted or top-dose-only effect, or effect the other way; inactive = flat fitted curve, though single readings scatter; tested in HEK293 cells; about a fifth of its hits are not listed in these tables; also: % is scaled to controls: 0 for no effect and ±100 for the full control effect; luciferase read-out
* hit, by the source's call; u = inconclusive; x = no result given; & = joins results of further samples; [ ] = dose if it differs, or a comment. Unless noted, calls follow the shape of the dose curve; as a rule, active = well fitted curve in the direction sought with a large enough effect; inconclusive = small, poorly fitted or top-dose-only effect, or another doubt; inactive = no such curve, though single readings can be large; an effect the other way counts as inactive or inconclusive. Potency is read from the fitted curve at half-maximal effect.

SMILES	NS1 inh	Cruzain inh Det	Lassa entry inh	2A StopGo	SARS PLpro yeast	RE007 growth inh	Cruzain inh noDet	MARV entry inh
Cc1ccc(SCC(=O)N2CC(C)OC(C)C2)cc1 (centres undefined)	u	-0.9%	21.6%	33.9%[activator]	0.6%	1.7%	-6.6%	12.2%
Cc1ccc(C)c(OCCn2cc(/C=C(\C#N)C(=O)NCc3ccco3)c3ccccc32)c1	7.3%	-4.1%	1.7%	-0.4%	-0.9%	12.1%	u	u
C/C(Cn1nnc2ccccc21)=N\NC(=O)c1cccc(Br)c1	-8.6%	-2.6%	21.0%	6.8%	-5.1%	-7.9%	-2.7%	4.7%
O=C(N/N=C/C=C/c1ccco1)c1ccncc1	-1.5%	x	-6.9%[46.1 µM]	-6.9%	0.4%	-9.7%	x	18.8%[46.1 µM]
CCN(CC(=O)N1CCOCC1)S(=O)(=O)c1ccc(C)cc1	3.6%	1.3%	5.5%	-15.1%	2.3%	-12.4%	8.2%	u
CCCOc1ccc(/C=N/Nc2ccc(C(=O)O)cc2)c(OCCC)c1	x	x	x	0.0%	2.1%	9.7%	x	13.5%[46.1 µM]
Cc1ccc(C)c(C(=O)CSc2nc3ccccc3c(=O)[nH]2)c1	-2.2%	x	-12.7%	2.5%	0.6%	-0.3%	x	-23.2%[46.1 µM]
COc1ccc(-c2cc(-c3c(O)c(OC)c4occc4c3OC)[nH]n2)cc1OC	-46.7%	-12.2%	-34.4%	x	-23.5%	0.0%	u	-18.5%
Cc1ccc2c(CC(=O)Nc3cccc(Cl)c3C)coc2c1	x	-1.8%	-11.3%[46.1 µM]	-4.7%	x	x	-15.9%	u
COc1ccc(/C=N/OC(=O)Nc2ccccc2OC)cc1	-4.4%	x	u	-9.2%	-3.5%	5.8%	x	u
CSC(=Nc1ccccc1)c1c(O)n(C)c(=O)n(C)c1=O	-0.2%	2.2%	-0.7%	-8.3%	-2.9%	-21.9%	-12.9%	-21.5%
COc1ccc(CN2CCNC(=O)C2CC(=O)NCCSc2nccn2C)cc1OC (centres undefined)	2.0%	x	x	6.5%	0.1%	0.0%	x	x
COc1ccc(S(=O)(=O)N2CCCCCC2)cc1N	8.8%	x	23.6%	15.2%	3.6%	6.8%	x	2.4%[46.1 µM]
COc1ccccc1NC(=O)COC(=O)CCC1CCCC1	x	x	-17.5%	-7.9%	-12.6%	-12.2%	x	-2.1%
CCOC(=O)C1=C(CS(=O)(=O)c2cccc(C(F)(F)F)c2)NC(=O)NC1c1cccc(OC)c1 (centres undefined)	x	-10.7%	-2.4%[46.1 µM]	-17.3%	x	x	9.8%	u
Cc1ccc(N(CC(=O)N/N=C/c2cccs2)S(C)(=O)=O)cc1Cl	9.3%	0.3%	u	-7.9%	3.5%	7.2%	-1.0%	-12.7%
CCCCN(C)C(=O)c1nc2ccccn2c1CN1CCN(c2ncccn2)CC1	0.2%	x	x	0.2%	1.0%	12.4%	x	x
O=C(CSc1nnc(CNc2ccc(F)cc2)n1CC1CCCO1)N1CCOCC1 (centres undefined)	-2.8%	x	-3.8%	11.3%	9.2%	-1.0%	x	8.0%[46.1 µM]
CCc1nc2ccc(C(=O)NCCc3ccccc3OC)cc2nc1CC	-13.8%	-1.8%	-24.2%[46.1 µM]	-14.0%&-5.1%	-19.2%	-4.8%	-11.3%	x
Cn1c2c(c(=O)c3ccccc31)CCCC2	-27.9%	x	-9.0%	-9.9%	-3.8%	-1.0%	x	20.2%

Record cards (already shown). Order of screens: NS1 inh, Cruzain inh Det, Lassa entry inh, 2A StopGo, SARS PLpro yeast, RE007 growth inh, Cruzain inh noDet, MARV entry inh
Entry for `Cn1c2c(c(=O)c3ccccc31)CCCC2` : -27.9%, x, -9.0%, -9.9%, -3.8%, -1.0%, x, 20.2%
Entry for `Cc1ccc(N(CC(=O)N/N=C/c2cccs2)S(C)(=O)=O)cc1Cl` : 9.3%, 0.3%, u, -7.9%, 3.5%, 7.2%, -1.0%, -12.7%

New compounds follow:
SMILES	NS1 inh	Cruzain inh Det	Lassa entry inh	2A StopGo	SARS PLpro yeast	RE007 growth inh	Cruzain inh noDet	MARV entry inh
CON(c1nc(Cl)nc(N(C)C)n1)S(=O)(=O)c1ccccc1Cl	0.0%	-0.3%	12.6µM*	u	-6.1%	-10.6%	0.7%	-1.0%
CCCCCOC(=O)Cn1c(=O)oc2ccc(C)cc21	-14.6%	-3.7%	-0.4%	-10.0%	26.3%	5.3%	-12.2%	4.6%
COc1cccc(NC(=O)Cc2nnc(SCCOc3ccccc3)n2C)c1	-7.3%	1.8%	u	0.0%	-1.1%	3.7%	-4.5%	-17.1%[46.1 µM]
Cc1ccc(C(=O)Cn2c(C(=O)O)cc3ccccc32)cc1	-42.1%	x	20.9%[46.1 µM]	-11.2%	-1.2%	23.5%	x	28.7%[46.1 µM]
COC(=O)C1=NN(c2ccccc2)C2(S1)SC(C(C)=O)=C(C)N2c1ccccc1 (centres undefined)	1.6%	0.4%	-4.0%	u	-0.2%	2.2%	1.8%	-5.8%
Cc1ccc(CSc2nnc(-c3cccs3)n2C)cc1	-41.5%	0.2%	3.6%	x	-32.8%	11.3%	1.9%	3.3%
Cc1ccc(C)c(SCC(=O)NC2CCS(=O)(=O)C2)c1 (centres undefined)	x	x	12.2%	-10.9%	4.3%	-13.0%	x	u
CSc1nc(C)c(CCOC(=O)c2cccc(Cl)c2)c(=O)[nH]1	-12.1%	3.7%	-1.6%	4.6%	0.6%	14.1%	-17.4%	-5.6%
CC(=O)Nc1ccc(NC(=O)c2ccccc2S(=O)(=O)c2ccc([N+](=O)[O-])cc2)cc1	4.1%	x	-4.1%	-7.5%	0.1%	-4.7%	x	3.5%
CC1(C)SCC2C(=O)N3C(CSC3(C)C)C(=O)N21 (centres undefined)	-0.8%	1.5%	4.8%	9.1%	7.7%	-10.6%	-0.4%	-1.1%
c1ccc(-n2nnnc2OCCOc2nnnn2-c2ccccc2)cc1	0.8%	-0.5%	-6.4%	x	x	-2.9%	-6.3%	-2.6%
CC(C)c1ccc(NC(=O)C2CCN(S(=O)(=O)c3ccc4c(c3)NC(=O)CO4)CC2)cc1	13.7%	x	x	u	3.9%	-2.4%	x	x
COc1cc(C(=O)NCc2nnc(SCC(=O)c3ccc(Cl)cc3)o2)cc(OC)c1OC	11.0%	x	x	-22.2%	-0.1%	8.1%	x	x
NC1=NC(=O)C2(COC(c3ccccc3Cl)OC2)S1 (centres undefined)	5.6%	-2.2%	1.9%	4.6%	-4.9%	14.4%	-3.2%	u
Cc1ccc(-n2c3c(cc(-c4nc(-c5ccc(Cl)cc5)cs4)c2=O)C(=O)CC(C)(C)C3)cc1C	x	-0.5%	-3.9%[46.1 µM]	10.4%	x	x	-0.5%	-27.8%[46.1 µM]
CCOc1ccc(/C=C/C(=O)Nc2sc3c(c2C(=O)OC)C(C(=O)OC)CC3)cc1 (centres undefined)	x	-7.0%	u	u	x	x	-2.1%	x
COc1ccc(C(=O)Nc2cc3c4c(c2)CC(=O)N4CCC3)cc1	x	x	3.2%	22.6%	-5.5%	2.6%	x	0.1%
CCn1c(CC(=O)Nc2ccccc2)nnc1SCC(=O)N1CCOCC1	-1.9%	x	-3.2%	-11.8%	-5.5%	12.5%	x	18.6%
COCCN1C(=O)c2[nH]nc(-c3cc(C)ccc3O)c2C1c1ccc(C(C)C)cc1 (centres undefined)	x	-19.6%	u	u	x	x	-16.4%	u
COc1ccc(N2CCN(S(=O)(=O)CCNC(=O)c3ccco3)CC2)cc1	x	x	u	-7.0%	7.3%	5.4%	x	u
CC(=O)c1cccc(NC(=O)c2ccc(N(C)S(C)(=O)=O)cc2)c1	2.6%	1.6%	-7.9%	-9.9%	1.5%	-4.3%	3.3%	u
C=CCOn1c(=O)c(-c2ccc(Br)cc2)[n+]([O-])c2ccccc21	-2.3%	x	4.2%	-9.5%	-1.8%	-0.1%	x	0.8%[46.1 µM]
O=c1c2ccccc2nc(-c2cccs2)n1-c1cccc2ccccc12	9.9%	-7.7%	-11.3%	-0.5%	-30.9%	-16.9%	u	u
CCOc1ccccc1NC(=O)CN1C(=O)COc2ccccc21	6.1%	x	x	-0.6%	-0.8%	11.9%	x	x
COC(=O)CN1C(=O)CC(C)(C)S(=O)c2ccccc21 (centres undefined)	9.2%	-2.6%	x	-13.0%	9.5%	13.9%	0.9%	x
COc1ccc(C(=O)NC2(C(F)(F)F)C(=O)NC(C)=C2C#N)cc1 (centres undefined)	x	-1.2%	16.8%[46.1 µM]	-17.2%	x	x	-0.6%	-28.5%[46.1 µM]
CCCn1cnnc1CNC(=O)C1CCC(=O)N(CCCc2ccccc2)C1 (centres undefined)	-3.5%	x	-2.7%[46.1 µM]	4.2%	0.2%	0.6%	x	12.2%[46.1 µM]
Cc1[nH]n(-c2ccc([N+](=O)[O-])cc2)c(=O)c1C=NCCc1c(C)[nH]c2ccccc12	5.8%	-7.1%	7.6%	25.1µM*	-31.3%	-19.6%	u	u
Cn1nc(C(F)(F)F)c(-c2ccc(F)cc2)c1NC(=O)c1cccnc1	11.2%	x	x	-12.3%	3.3%	-7.1%	x	x
Cc1ccccc1-n1c(SCc2cc(=O)n3ccccc3n2)nc2[nH]ncc2c1=O	1.1%	2.3%	16.7%	-18.9%	-4.8%	15.1%	6.1%	-21.8%
COc1cccc(-c2ccc(=O)n(CC(=O)Nc3ccc(C(=O)N4CCCC4)cc3)n2)c1	3.5%	-8.2%	5.7%	-10.8%	-6.7%	0.7%	u	9.3%
COC(=O)c1ccc(/C=C(\C#N)c2nc3ccccc3s2)cc1	-10.0%	3.1%	7.2%	39.6%[activator]	5.5%	0.1%	11.7%	26.7%
CNC(=S)N/N=C/c1c(Cl)cccc1Cl	15.1%	-5.0%	6.9%	8.2%	u	-8.2%	-27.1%	-2.3%
Fc1ccc(C2=NOC(c3nnc(-c4ccccc4)o3)C2)cc1 (centres undefined)	-4.8%	x	x	0.0%	2.8%	16.0%	x	x
